miR-21 FLuc: raises the signal of a miR-21 reporter | HeLa miR-21 FLuc reporter, luciferase, 48 h | Potency, µM (doses to about 38.3 µM), without a hit: at the highest dose reporter change, positive = more light | 340,000 tested, under 10 active | AID 2288; active = well fitted rising curve with a large enough effect; inconclusive = small, poorly fitted or top-dose-only effect; inactive = no such curve, though single readings can be large or run the other way;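 further: % of control where 0% means no effect; miR-21 action dims this reporter so a rising signal means less miR-21 action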
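HeLa cells endogenously expressing miR-21, stably carrying CMV-driven firefly luciferase with a downstream miR-21 binding site, 2000 cells/well. Titrations up to approximately 40 uM, 48 hours; luciferase luminescence read.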
Rango dissoc inh: inhibition of RanGTP-driven Rango-importin beta dissociation; Biochemical FRET Rango-importin beta, RanGTP-induced dissociation; Potency, µM (titrated, usually from 46.1 µM), without a hit: top-dose activity change, negative = inhibition; 340,000 compounds, 0.071% hits; AID 540253; active means falling FRET ratio curve, often poorly fitted, with flat reads before Ran was added; inconclusive means other falling curves, or compound fluorescence or quenching; inactive means flat or rising ratio curve;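 further: potency means the concentration at half of the fitted maximal effect; % of control where 0% means no effect; nearly all actives have a fitted effect of over 45% in size; -100% = wells without RanGTP and RCC1; the record marks most hits as doubtful in a second field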
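Compounds preincubate 5 min with complex of recombinant Rango and importin beta in PBS with 1 mM DTT. Ran (0.6 uM) loaded with 2 mM GTP plus 0.2 uM RCC1 starts dissociation; FRET is recorded 45 min later.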
Rango complex inh: Rango-importin beta binding inhibition | Rango CFP/YFP FRET sensor + importin beta, 45 min | Potency, µM (top dose mostly 92.2 µM), for the others: at the highest dose inhibition of complex formation | 340,000 compounds, 0.031% hits; active = rising FRET ratio curve, often small or poorly fitted; inconclusive = mostly compound fluorescence or quenching in the first reads; inactive = flat curves in all reads;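 further: potency means the concentration at half of the fitted maximal effect; 0% = DMSO wells and 100% = buffer wells lacking importin beta; nearly all actives have a fitted effect of over 15% in size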
Target sequence (Q14974 whole entry, looked up): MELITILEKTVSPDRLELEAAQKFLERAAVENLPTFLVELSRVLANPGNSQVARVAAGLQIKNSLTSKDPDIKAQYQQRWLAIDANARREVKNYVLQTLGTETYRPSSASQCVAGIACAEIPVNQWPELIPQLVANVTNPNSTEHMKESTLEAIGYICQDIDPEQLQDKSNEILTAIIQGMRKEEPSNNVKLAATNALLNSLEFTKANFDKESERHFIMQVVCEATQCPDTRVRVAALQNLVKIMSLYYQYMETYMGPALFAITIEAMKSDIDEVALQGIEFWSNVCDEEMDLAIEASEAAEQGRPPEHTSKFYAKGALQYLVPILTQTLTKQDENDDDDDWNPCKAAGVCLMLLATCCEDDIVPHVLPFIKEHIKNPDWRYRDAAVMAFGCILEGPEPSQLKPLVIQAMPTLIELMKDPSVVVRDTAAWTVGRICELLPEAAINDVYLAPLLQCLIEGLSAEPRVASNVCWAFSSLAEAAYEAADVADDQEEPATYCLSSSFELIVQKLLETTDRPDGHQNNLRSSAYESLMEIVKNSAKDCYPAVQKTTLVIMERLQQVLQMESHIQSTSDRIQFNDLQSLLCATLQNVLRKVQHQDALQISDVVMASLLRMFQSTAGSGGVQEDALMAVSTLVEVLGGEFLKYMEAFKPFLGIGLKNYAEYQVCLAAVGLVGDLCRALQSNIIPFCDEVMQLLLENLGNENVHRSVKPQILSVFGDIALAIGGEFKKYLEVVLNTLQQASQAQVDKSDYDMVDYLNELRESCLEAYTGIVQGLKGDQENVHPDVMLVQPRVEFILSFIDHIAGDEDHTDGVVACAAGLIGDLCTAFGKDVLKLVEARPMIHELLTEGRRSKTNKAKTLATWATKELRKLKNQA
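Inhibition scored from the CFP 486 nm/YFP 530 nm FRET ratio 45 min after adding 0.125 microM importin beta to 50 nM Rango biosensor preincubated 5 min with compound (room temperature, PBS with DTT, Tween-20, BSA). No-importin wells as positive control.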
GLA inh pH 4.5: alpha-galactosidase A (human) inhibition, pH 4.5; purified enzyme, 4-MU-alpha-Gal fluorescence, pH 4.5; AID 1467; P06280; activity change, negative = inhibition, % at 105 µM; 230,000 tested, under 10 active; inconclusive = small, poorly fitted or top-dose-only inhibition, or a rising curve; inactive = flat fitted curve, though single readings scatter; no compound was filed as active;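 further: 0% = full activity with enzyme and -100% = basal without enzyme; dose as in the result columns while the protocol names 77 µM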
* = called active by the depositor; u = inconclusive; x = not tested or not shown; & = joins results of further samples. The list is partial; count on the stated rates, not on these rows.

SMILES	miR-21 FLuc	Rango dissoc inh	Rango complex inh	GLA inh pH 4.5
CC(=O)Nc1cccc(C(=O)NNC(=O)c2n[nH]c(=O)c3ccccc23)c1	x	2%	3.4%	x
CCCCn1nc(C(=O)NCC2COc3ccccc3O2)c2ccccc2c1=O (stereo not given)	x	-3%	-1.2%	x
N#C/C(=C\c1cccnc1)C(=O)Nc1ccc(S(N)(=O)=O)cc1	0%	-2%	-2.3%	x
N/C(Cc1cccc2ccccc12)=N\OC(=O)c1ccc(Br)o1	-4%	x	x	8
COC(=O)c1ccc(C2C(Oc3ccccc3)C(=O)N2CCc2ccc(F)cc2)cc1 (stereo not given)	2%	14%	-1.1%	-4
CCCCn1c(N)c(N(CC(C)C)C(=O)c2cc(-c3ccncc3)nc3ccccc23)c(=O)[nH]c1=O	x	-19%	u	x
O=C(Nc1cccc(NC(=O)c2ccc(-c3ccc(Br)cc3)o2)c1)c1ccco1	1%	0%	-3.4%	-3
C(CCc1nn[nH]n1)CCC1CCCCC1	x	7%	6.5%	x
CCCN1CC(=O)N2C(c3cccc(OC)c3OC)c3[nH]c4ccccc4c3C[C@H]2C1=O (stereo not given in full)	-11%	-14%	-1.4%	x
CCN1C(=O)c2cccc3c(N)ccc1c23	-12%	u	-0.1%	4
COc1ccc(OC)c(NC(=O)NCCN2CCN(c3ccccc3)CC2)c1	-3%	5%	-0.3%	x
COc1ccc(CNC2CCN(Cc3ccccc3)CC2)cc1	4%	26%	2.3%	x
CC(C)OP(=O)(c1ccc(N(C)C)cc1)C(O)c1ccc(Br)cc1 (stereo not given)	-1%	11%	0.0%	x
O=C(CSc1nc2ccccc2c(=O)n1C1CC1)NCc1ccccc1	-3%	1%	-5.1%	-2
CC(C)(C)NC(=O)NC(=O)CN1CCN(c2ccccc2O)CC1	-1%	11%	-0.1%	2
Nn1c(SCC(=O)Nc2c(Cl)cccc2Cl)nncc1=O	x	21%	3.6%	x
CC(C)c1ccc(NC(=O)CN2CCN(C(=O)C3CCCO3)CC2)cc1 (stereo not given)	0%	-6%	-11%	x
Nc1cccc(Oc2cnccn2)c1	-1%	8%	3.8%	x
COc1ccccc1CNC(=O)COC(=O)CSc1ccc(C)c(C)c1	x	-11%	0.9%	x
COc1cccc(C(C(=O)NC(C)(C)C)N(C(=O)CCC(=O)Nc2cc(C)on2)c2ccc3c(c2)OCCO3)c1OC (stereo not given)	-5%	10%	-1.8%	x
O=C(O)c1[nH]c2ccccc2c1-c1ccccc1	0%	-7%	1.4%	7
CCCCN(C)C(=O)c1cc2c(s1)-c1ccccc1S(=O)(=O)C2	-13%	7%	-3.9%	-1
O=C(CN1CCN(Cc2ccccc2F)C1=O)NCc1cccnc1	-4%	15%	2.8%	-8
CCOC(=O)N1CCc2c(sc3c2c(=O)n(Cc2ccccc2)c(=O)n3Cc2ccc(C)cc2)C1	4%&-1%	3%	0.8%	-23
O=C1CCCN1CCCNc1ncnc2c1[nH]c1ccc(Cl)cc12	-38%	-3%	0.0%	0

Filtered by structure: the compounds so far containing a Cl atom (two)
SMILES	miR-21 FLuc	Rango dissoc inh	Rango complex inh	GLA inh pH 4.5
Nn1c(SCC(=O)Nc2c(Cl)cccc2Cl)nncc1=O	x	21%	3.6%	x
O=C1CCCN1CCCNc1ncnc2c1[nH]c1ccc(Cl)cc12	-38%	-3%	0.0%	0

The results go on:
SMILES	miR-21 FLuc	Rango dissoc inh	Rango complex inh	GLA inh pH 4.5
CCOC(=O)CCc1c(C)nc2cc(-c3ccc(F)cc3)[nH]n2c1=O	-14%	0%	-1.2%	-13
COc1ccccc1CNC(=O)Cc1ccc(Br)cc1	-14%	17%	1.7%	1
CC(=O)n1c(Cl)c(NC(=O)CCl)c2ccccc21	u	-7%	-3.0%	1
CC1CCCN(CC(O)COCc2ccc3c(c2)OCO3)C1 (stereo not given)	-19%	10%	1.1%	4
Cc1cc(S(=O)(=O)/N=C(\N)c2ccc(C(N)=O)cc2)cc(C)c1F	-2%	-17%	2.6%	x
COc1ccc(C2C(C(=O)NCc3ccccn3)CCC(=O)N2c2cc(OC)c(OC)c(OC)c2)cc1 (stereo not given)	-3%	10%	-1.2%	4
c1ccc(CCNCC2COc3ccccc3O2)cc1 (stereo not given)	-31%	5%	3.1%	x
O=C1C2C3C=CC(C3)C2C(=O)N1CNc1ccc(O)cc1 (stereo not given)	-12%	x	x	-2
COc1ccccc1NS(=O)(=O)c1ccc(N2CCOCC2)c(N)c1	x	-27%	-0.9%	x
O=C(Cn1cnnn1)NCCc1ccc(Cl)cc1Cl	0%	-5%	-6.9%	x
CCC(Cc1ccccc1)NC(=O)CCn1cccc1 (stereo not given)	-4%	-4%	0.3%	2
O=C(Oc1ccc2c(c1)OCO2)c1cccs1	-12%	7%	-0.3%	-8
Cc1ccc(OCC(=O)NC2CCS(=O)(=O)C2)cc1 (stereo not given)	-1%	0%	-2.8%	-1
CC1CN(CCc2ccccc2)c2nc3c(c(=O)n(CC(N)=O)c(=O)n3C)n2C1 (stereo not given)	-1%	-7%	-1.6%	x
CN(CC(=O)N1CCN(c2ccccc2)CC1)C1CCCc2ccccc21 (stereo not given)	-3%	43%	-0.3%	x
Cc1ccc(OCC(=O)NNC(=O)c2ccc(-n3cncn3)c([N+](=O)[O-])c2)cc1	x	19%	5.5%	x
CCNC(=O)C1CC(=O)N(CCCc2ccccc2)C(=Nc2ccccc2)S1 (stereo not given)	-2%	-4%	-0.5%	-1
N#C/C(=C\c1ccc(OCc2ccc(C(=O)O)cc2)cc1)C(=O)NCc1ccccc1	-23%	1%	-3.7%	x
Cc1ccc(C)c(S(=O)(=O)N2CCN(C(=O)c3cccnc3)CC2)c1	-5%	7%	0.3%	x
CCCCn1c(N)c(N(C(=O)CSc2nnnn2-c2ccccc2)C2CCCC2)c(=O)[nH]c1=O	x	51%	4.0%	x
CC(CCCC(C)(C)O)NC(=O)c1ccc2oc(CCc3ccccc3)nc2c1 (stereo not given)	10%	-2%	-2.7%	x
CCOP1(=O)OCC2OC(n3cnc4c(N)ncnc43)C(O)C2O1 (stereo not given)	-6%	-2%	1.4%	-1
O=C(NN1C(=O)C2C(C1=O)C1C=CC2C12CC2)c1ccc(Cl)cc1 (stereo not given)	1%	0%	u	3
CC(C)Sc1ncc(S(=O)(=O)c2ccccc2)c(=O)[nH]1	1%	5%	-0.2%	8
COc1ccc(C(=NN)c2ccc(OC)cc2)cc1	x	4%	-1.2%	x

Record cards, from the list above:
Shown for `O=C(Oc1ccc2c(c1)OCO2)c1cccs1` → miR-21 FLuc: -12%; Rango dissoc inh: 7%; Rango complex inh: -0.3%; GLA inh pH 4.5: -8
Shown for `CN(CC(=O)N1CCN(c2ccccc2)CC1)C1CCCc2ccccc21` (stereo not given) → miR-21 FLuc: -3%; Rango dissoc inh: 43%; Rango complex inh: -0.3%; GLA inh pH 4.5: x
Shown for `O=C(NN1C(=O)C2C(C1=O)C1C=CC2C12CC2)c1ccc(Cl)cc1` (stereo not given) → miR-21 FLuc: 1%; Rango dissoc inh: 0%; Rango complex inh: u; GLA inh pH 4.5: 3

Next section.
SMILES	miR-21 FLuc	Rango dissoc inh	Rango complex inh	GLA inh pH 4.5
C/C(=N\S(=O)(=O)c1ccc(C)cc1)NC(=S)Nc1ccc(C)cc1	-39%	0%	1.9%	16
COC(=O)CSc1nnc(CNS(=O)(=O)c2ccc(C)cc2)n1C	-1%	1%	0.3%	11
COCCNc1nc(-c2cc(-c3ccc(Cl)cc3)on2)cc(C(C)C)n1	0%	-6%	-5.2%	-10
Cc1ccccc1NC(=O)C1CCCN(S(=O)(=O)c2c(C)noc2C)C1 (stereo not given)	-2%	-3%	-0.3%	-2
COc1ccc(-c2nnc(SCC(=O)N3CCCCC3)o2)cc1OC	-2%	-20%	-1.3%	7
CC(=O)c1cccc(CN2CCC(CO)(Cc3ccccc3)CC2)c1	-1%	24%	1.1%	u
NC(=O)COC(=O)c1ccccc1OCc1ccc(Cl)cc1	0%	23%	1.3%	0
CC(=O)Nc1ccc(-c2nc3cc(Cl)ccc3o2)cc1	-61%	1%	5.8%	x
CCc1cc(C(=O)c2ccc(OC)cc2)c(NC(=O)CN2CCN(C)CC2)s1	-3%	-9%	6.0%	-7
O=C(C1CC(=O)N(c2ccccc2F)C1)N1CCOCC1 (stereo not given)	x	-1%	-1.1%	x
CCOc1ccc(CN(C)CC(=O)NCc2ccccc2Cl)cc1	-25%	8%	2.8%	4
Cn1c(CCN2CCCCC2)nc2cc(NS(=O)(=O)c3ccc(Cl)cc3)ccc21	u	0%	-6.0%	-3
Cc1nn(-c2ccccc2)c(N2CCCCC2)c1/C=N/NC(=O)c1ccncc1	4%	1%	-0.2%	5
c1ccc(-n2cnc3cc(NCc4ccccn4)ccc32)cc1	-57%	-12%	u	-1
O=C(N/N=C/c1cccc([N+](=O)[O-])c1)c1c[nH]c2ccccc12	-40%	27%	1.3%	-8
CCOc1ccc(CC(=O)N/N=C/c2sccc2C)cc1	-11%	-26%	1.9%	x
COc1ccc(C2CC(=O)OC3=C2C(=O)CC(C)(C)C3)c(OC)c1 (stereo not given)	-1%	-1%	2.9%	7
COc1cccc(C2C(C(=O)c3cccs3)=C(O)C(=O)N2c2cc(C)on2)c1 (stereo not given)	-22%	-22%	-2.7%	-1
CCC/C=N/NC(=O)C1COc2ccccc2O1 (stereo not given)	15%	-3%	-2.8%	0
COc1ccc(CCNC(=O)CCc2ccsc2)cc1OC	-7%	-11%	u	x
CCOc1ccc(-c2nnc(SCC(=O)Nc3ccc4c(c3)c3ccccc3n4CC)n2N)cc1	17%	1%	13%	-2
O=C(NNC(=O)c1sccc1-n1cccc1)c1cccs1	-4%	9%	-0.7%	-2
CC1=NC(C(F)(F)F)(C(F)(F)F)C2=C(CC(C)(C)CC2=O)N1Cc1ccco1	6%	-11%	0.4%	-2
Cc1cc(C)cc(CC(CC(=O)Nc2ccc(Cl)cc2)C(=O)O)c1 (stereo not given)	-1%	2%	-1.0%	x
COc1ccc(-c2cn3cccnc3n2)cc1NC(=O)c1ccc(Br)o1	2%	9%	1.7%	1

Continued, starting with the last 2 of the part before.
SMILES	miR-21 FLuc	Rango dissoc inh	Rango complex inh	GLA inh pH 4.5
Cc1cc(C)cc(CC(CC(=O)Nc2ccc(Cl)cc2)C(=O)O)c1 (stereo not given)	-1%	2%	-1.0%	x
COc1ccc(-c2cn3cccnc3n2)cc1NC(=O)c1ccc(Br)o1	2%	9%	1.7%	1
Cc1ccc(-c2c[n+](CC(=O)Nc3cc(=O)n(C)c(=O)n3C)c3n2CCC3)cc1	-2%	6%	0.4%	2
CCn1c(N)c(C(=O)NCC2CCCO2)sc1=S (stereo not given)	-12%	7%	1.4%	2
CCCOc1ccc(C(=O)CCC(=O)OC(C)C(=O)Nc2ccc(NC(C)=O)cc2)cc1 (stereo not given)	x	20%	-0.1%	x
CCn1c(C)c(C)c2cc(C(=O)NCCCN3CCCCCC3)ccc21	-6%	-6%	4.3%	x
COc1ccc(NC(=O)CSc2nc(O)cc(=O)n2-c2ccc(OC)cc2)cc1	-2%	1%	3.5%	x
Cc1nnc(SCc2nc3ccccc3s2)n1-c1ccccc1	-86%	-20%	u	0
CCn1c(/N=C/c2ccccc2NS(=O)(=O)c2ccc(C)cc2)nc2ccccc21	u	u	u	3
O=C1C=C(Nc2ccc(Cl)cc2)CC(c2ccc(Cl)cc2)C1 (stereo not given)	-49%	-3%	-0.5%	x
O=S(=O)(c1ccc(OCC(O)CNCc2ccco2)c(Cl)c1)N1CCOCC1 (stereo not given)	-10%	1%	-0.1%	-2
Cc1cc(C)n(CCC(=O)N/N=C/c2ccc(Cl)c([N+](=O)[O-])c2)n1	5%	-17%	1.5%	-11
CCCN(CC(=O)Nc1ccccc1OC)C(=O)c1cc(S(=O)(=O)NCc2ccccc2)ccc1C	0%	-8%	5.1%	x
Cc1cccc(NC(=O)CSc2nc3ccccc3nc2N2CCCCC2)c1	8%	-10%	u	x
Cc1ccc(C(=O)NCCSc2ccc(Cl)cc2)cc1[N+](=O)[O-]	u	18%	0.5%	-22
COC(=O)CSC(=S)N1CCCC(C)C1 (stereo not given)	-2%	-5%	0.1%	-3
CCOC(=O)c1nn(-c2ccc3c(c2)OCCO3)cc1O	0%	8%	1.8%	6
CC(C)(C)c1ccc(OCCNC(=O)Cc2ccc(F)cc2)cc1	-3%	-22%	0.8%	2
